# Source: PubChem BioAssay (ICCB-Longwood Screening Facility, Harvard Medical School)
# MgrA DNA FP = S. aureus MgrA activity modulators, primary screen, biochemical, S. aureus Newman, fluorescence polarization | 0.13% of 84,000 active | MgrA-DNA binding | inhibition, %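 (about 10 µg/mL by stock and volumes)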;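 active = above 50% in either of two replicates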;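 note: 0% = protein plus DNA without compound and 100% = DNA alone without protein; higher means less MgrA bound to DNA so lower polarization; one replicate is shown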
# Sa helicase inh = inhibitors of S. aureus replicative helicase, primary screen, biochemical, fluorescence unwinding readout; purified S. aureus helicase, fluorescence unwinding assay; about half of the hits fall short of the stated cut; inhibition, %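 (tested at about 80 µM)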; replicative DNA helicase (DnaC/DnaB), Staphylococcus aureus; AID 485395, 2010; 0.05% of 120,000 active;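 active = both duplicates at 50% or more, or one of them with a favoured structure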;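 note: 0% = mean of negative control wells and 100% = mean of positive control wells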
# * hit, by the source's call; / = no result given; & = joins results of further samples. Not all compounds are listed; rates above refer to the full screens.
# Values run as follows: MgrA DNA FP	Sa helicase inh
> COc1ccc2nc(NC(=O)CN3CC4CC(C3)c3cccc(=O)n3C4)sc2c1 (stereo not given)
→ /	-16
> C=CCn1cc(C=C2C(=O)NC(=O)NC2=O)c2ccccc21
→ /	-86
> COc1ccc(N2CCN(C(=O)CN3CC=C(c4ccccc4)CC3)CC2)cc1
→ /	-12
> COC(=O)C1(C#N)C(c2ccc(C)cc2C)C(C(=O)c2ccccc2)N2c3ccccc3C=CC21 (stereo not given)
→ -0.7	-3
> Cc1nc(-c2ccccc2)nc(OC(=O)N(C)C)c1Oc1cccc(C(F)(F)F)c1
→ -0.1	/
> CC1N=C(c2ccccc2)c2cc(Br)ccc2NC1=O (stereo not given)
→ 0.2	6
> COc1ccc(C=C(C#N)C#N)c2ccccc12
→ 2.6	3
> Cc1ccc2c(c1)C1CN(C)CCC1N2C(=O)/C=C/c1ccccc1 (stereo not given)
→ -1.2	-20
> CC12CCCCC1=NC(c1ccccc1O)N2O (stereo not given)
→ 1.9	-4
> CC(N)Cc1ccco1 (stereo not given)
→ -2.1	9
> O=C1CC[C@@]2(O)[C@H]3Cc4ccc(O)c5c4[C@@]2(CCN3CC2CC2)[C@H]1O5
→ -0.2	/
> Cc1ccccc1-n1c(CSc2ncccn2)nc2ccccc2c1=O
→ /	6
> CN(C)C(=Nc1ccc(I)cc1)P(=O)(N(C)C)N(C)C
→ /	2
> Cc1c(P(=S)(N2CCOCC2)N2CCOCC2)cc(C#N)n1C
→ /	4
> OC1C2CCCC1C(N1CCCCC1)CC2 (stereo not given)
→ /	-13
> Oc1ccc(Cl)cc1
→ 1.0	/
> CC#CCNC1CCCCC1
→ 1.1	2
> Cc1ccc2c(c1)C1CN(C)CCC1N2C(=O)Cc1cccs1 (stereo not given)
→ -0.2	17
> Cc1ccc2onc(OC(=O)N(C)C)c2c1
→ 2.2	/
> CC[n+]1c(-c2ccccc2)c2cc(N)ccc2c2ccc(N)cc21
→ 58*	/

# In the list so far, these have a halogen.
# Values run as follows: MgrA DNA FP	Sa helicase inh
> Cc1nc(-c2ccccc2)nc(OC(=O)N(C)C)c1Oc1cccc(C(F)(F)F)c1
→ -0.1	/
> CC1N=C(c2ccccc2)c2cc(Br)ccc2NC1=O (stereo not given)
→ 0.2	6
> CN(C)C(=Nc1ccc(I)cc1)P(=O)(N(C)C)N(C)C
→ /	2
> Oc1ccc(Cl)cc1
→ 1.0	/

# Next section.
# Values run as follows: MgrA DNA FP	Sa helicase inh
> Cc1c(C(N)=O)ncn1Cc1ccc(Cl)cc1
→ -0.3	/
> C=CCOC(=O)C1C2NC(=S)N(CCCOC)C1(C)Oc1c(OCC)cccc12 (stereo not given)
→ /	0
> CCOc1ccccc1C=C1C(=O)NC(=S)NC1=O
→ 19	/
> CCCCN1CCC(O)(c2ccccc2)C(C(=O)c2ccccc2)C1 (stereo not given)
→ -2.5	2
> CC1CCCCN1CC(=O)c1cc(Cl)ccc1Cl (stereo not given)
→ /	-2
> CC(=O)Nc1cc(C(=O)N2CCC3(CC2)OCCO3)ccc1S(=O)(=O)c1ccc(Cl)cc1
→ /	5
> CC1=C(C(=O)OC(C)C)C2(C(=O)Nc3ccccc32)C(C(=O)OC(C)(C)C)=C(N)O1 (stereo not given)
→ 0.1	/
> N#Cc1cc2c(nc1SCC(=O)NCc1ccc(F)cc1)C1CCN2CC1
→ 0.8	23
> N#CCN1CCN(Cc2ccccc2)CC1
→ /	27
> N#Cc1ccccc1CCl
→ 3.6	8
> O=C(Cc1ccccc1)OCn1nnc2ccccc2c1=O
→ /	11
> CN1CCCC(OC(=O)c2cccnc2Cl)C1 (stereo not given)
→ 1.6	11
> N#CC1=C(N)Oc2c(c(=O)oc3ccccc23)C1c1ccccc1 (stereo not given)
→ /	-43
> CC12CC[C@H]3[C@@H](CCC4(O)C[C@H](O)CCC34/C=N/NC(N)=O)C1(O)CCC2C1=CC(=O)OC1 (stereo not given in full)
→ /	-2
> CCCCP(=O)(O)c1ccccc1
→ -1.8	/
> CC1(C)CC(CCNCc2ccc3c(c2)OCO3)(Cc2ccccc2)CCO1 (stereo not given)
→ -0.4	2
> O=C(Cn1c(=O)oc2cc(Cl)ccc21)N1CCC2(CC1)OCCO2
→ /	-22
> S=c1[nH]nc(CCN2CCN(c3ccc(Cl)cc3)CC2)n1-c1ccccc1
→ 2.6	13
> CCC1NCCc2c1[nH]c1ccccc21 (stereo not given)
→ 0.4	/
> CCOC(=O)c1c(C)n(Cc2ccccc2)c2ccc(OCC(O)CN3C(=O)CNC3=O)cc12 (stereo not given)
→ 0.2	6

# (next part)
# Values run as follows: MgrA DNA FP	Sa helicase inh
> CCN(CC)C(=O)c1ccc(N2C(=O)C3C4C=CC(C4)C3C2=O)cc1 (stereo not given)
→ /	-19
> CC(C)NC(C)C(=O)c1ccc2ccccc2c1 (stereo not given)
→ -1.0	8
> CC(=O)N1CCCSC1=Nc1ccccc1
→ /	14
> Cc1cc(C)c(C=C(C#N)C#N)[nH]1
→ /	-15
> CC1(C)C(C(=O)Nc2ccc(S(=O)(=O)c3ccc(NC(=O)C4C(C)(C)C4(C)C)cc3)cc2)C1(C)C
→ -2.1	10
> O=C1NC2(CCNCC2)N=C1c1ccc(Cl)cc1
→ /	21
> CC1CN=C(Nc2ccc(C(C)C)cc2)S1 (stereo not given)
→ -0.8	-31
> Cc1cc(C=C(C#N)C#N)c(C)n1C1CCCC1
→ -1.1	0
> Cc1nc2ccccc2c(=O)n1-c1ccc2c(c1)OC(F)(F)O2
→ -0.9	4
> CCOc1ccc(N(C(C)=O)C2=NCCCS2)cc1
→ 16	-3
> N#CC1=C(N)Oc2c(c(=O)oc3ccccc23)C1C1CCCCC1 (stereo not given)
→ /	5
> O=C(NC1CC1)C1CSC(c2cccnc2)=N1 (stereo not given)
→ /	4
> CC(=O)OC1CCNC2CCCCC21 (stereo not given)
→ /	7
> N#CCCn1cc(C(=O)Oc2ccccc2)c(-c2cccc(Br)c2)n1
→ -0.5	-14
> COc1ccc(C2C(C(=O)N3CCC4(CC3)OCCO4)c3ccccc3C(=O)N2C)cc1 (stereo not given)
→ /	12
> CC1(C)CN=C(Nc2ccc(C(F)(F)F)cc2)S1
→ 0.5	21
> CC1=NCCc2c1[nH]c1cc(O)ccc21
→ 15&48	/
> COc1cc(-c2nnc(COC(=O)C(O)(c3ccccc3)c3ccccc3)o2)cc(OC)c1OC
→ /	-12
> N#CC1=C(N)Oc2c(c(=O)oc3ccccc23)C1c1cc([N+](=O)[O-])ccc1Cl (stereo not given)
→ 0.1	/
> CN1CCC(OC(=O)Cc2ccccc2)CC1
→ -3.5	11

# (further entries)
# Values run as follows: MgrA DNA FP	Sa helicase inh
> COc1ccc(C=C2C(=O)NC(=S)NC2=O)cc1
→ 12&30	3&-5
> CC(=O)N=c1nc(-c2ccccc2)n(-c2ccccc2)s1
→ 0.0	-19
> CC(=O)Nc1ccc(NC(=O)CN2CC=C(c3ccccc3)CC2)cc1
→ /	10
> Clc1ccc(CCC(Cn2ccnc2)Sc2c(Cl)cccc2Cl)cc1 (stereo not given)
→ 4.5	/
> CCN(CC)CCSc1nc2ccccc2c(=O)n1-c1ccc(OC)cc1
→ /	1
> CN=Cc1c[nH]c2ccccc12
→ -1.2	-4
> COc1ccc(C=C(C#N)C#N)cc1Br
→ /	-14
> CCn1c(O)c(C=Nc2ccc(S(N)(=O)=O)cc2)c(=O)[nH]c1=S
→ 2.0	-4
> CCCN1CCN(C(=O)Cc2csc(-c3ccc(OC)c(OC)c3)n2)CC1
→ /	11
> CC1Cc2ccccc2CN1 (stereo not given)
→ 1.0	-4
> O=C1NC(=O)C(C(c2ccccc2)c2ccccc2)C(=O)N1
→ 0.4	-10
> CC(=O)OC1CCC2(C)C(=CCC3C2CCC2(C)C(OC(=O)c4ccccc4)CCC32)C1 (stereo not given)
→ -1.2	/
> COc1cc2c(cc1OC)-c1c(OC)c(OC)c(N)c3c1[C@H](C2)N(C)CC3
→ -0.5	20
> N=c1c[n+](CCc2ccccc2)[n-]o1
→ 1.1	4
> Cc1ccc(NC(=S)NC2CN3CCC2CC3)cc1 (stereo not given)
→ /	23
> CC(=O)Nc1ccccc1OC(=O)N(C)C
→ /	20
> CCOC(=O)C1C(=O)NC2(C)Oc3ccccc3C1C2C (stereo not given)
→ 0.1	-18&14
> CN(C)Cc1c(O)[nH]c(=S)[nH]c1=O
→ 1.0	10
> CCCCn1nc(C)c(C(=O)O)c1Cl
→ /	-13
> CC1CCP(=S)(N(C)C)O1 (stereo not given)
→ 3.4	8

# Additional compounds:
# Values run as follows: MgrA DNA FP	Sa helicase inh
> CC[C@H]1CN2CCc3cc(OC)c(OC)cc3[C@@H]2C[C@@H]1C[C@H]1NCCc2cc(O)c(OC)cc21
→ 1.1	/
> CN(C)c1ccc(/C=C2/C(=O)NC(=O)N(C3CCCCC3)C2=O)cc1
→ 23	-5
> COc1ccccc1N1CCN(Cc2ccc(Cl)c(Cl)c2)CC1
→ -1.0	/
> CC12CN3CC(c4ccccc4)(CN(C1)C31CCCCC1)C2=O
→ /	15
> FC(F)(F)/C(=N\P(=S)(N1CCOCC1)N1CCOCC1)N1CCOCC1
→ /	3
> CC1(C)CN=C(Nc2ccc(Cl)cc2)S1
→ -1.0	/
> c1ccc(CCN2CCOCC2)cc1
→ -1.2	-6
> COc1cc(C2=NC(O)C(=O)Nc3ccc(Cl)cc32)ccc1O (stereo not given)
→ -1.8	/
> O=C1NC(=O)C(CCc2ccncc2)(CCc2ccncc2)C(=O)N1Cc1ccccc1
→ -2.6	3
> CN(C(=O)Oc1cccc2cccnc12)c1ccccc1
→ 0.2	8
> NCC1(CC(=O)O)CCCCC1
→ -1.5	/
> C/C=C1/C[C@@H](C)[C@](O)(CO)C(=O)OCC2=CCN3CC[C@@H](OC1=O)[C@@H]23
→ -5.2&1.9	11
> COc1ccc(CN2CCNCC2CCO)c(C)c1C (stereo not given)
→ /	20
> CC(=O)N1CCC(C(=O)O)(c2ccccc2)CC1
→ /	-7
> CC1=CC(=O)C2=C(C)CC(O)C3C(C)C(=O)OC3C12 (stereo not given)
→ 2.4	-6
> O=C(c1ccc2nc(N3CCCCC3)sc2c1)N1CCC2(CC1)OCCO2
→ -1.0	7
> COCCNC(=O)CN1C2CCC1CC(O)(c1cccnc1)C2 (stereo not given)
→ -1.0	-4
> O=c1c2ccccc2nc(-c2ccccc2)n1-c1ccc(O)cc1
→ /	9
> Cc1ccc(NC2=NCC(C)S2)cc1 (stereo not given)
→ 2.2	/
> COc1cccc(N2C(=O)NC(=O)C(CCc3ccncc3)(CCc3ccncc3)C2=O)c1
→ -1.4	17

# (more compounds)
# Values run as follows: MgrA DNA FP	Sa helicase inh
> CC1CCCN(C(=O)CN2C3CCC2CC(O)(c2cccnc2)C3)C1 (stereo not given)
→ -3.4	18
> CC[C@@]1(O)C(=O)OCc2c1cc1n(c2=O)Cc2cc3c(O)cccc3nc2-1
→ 5.5	/
> COc1cccc(OC)c1C1=NCC(=O)Nc2c1oc1ccc(Br)cc21
→ -3.1	1
> Cn1c(C=C(C#N)C#N)ccc1S(C)(=O)=O
→ /	23
> CN(C)C(=O)Oc1ccc(OC(=O)N(C)C)cc1
→ /	-3
> O=C(CCN1C(=O)CCC1=O)OCC1CCCN2CCCCC12 (stereo not given)
→ -1.5	6
> C#CC1(O)CCC2C3CCC4=CC(=O)CCC4(C)C3CCC21C (stereo not given)
→ 3.0	/
> NC(=S)N/N=C/c1coc2ccccc2c1=O
→ /	-13
> COc1cccc(OCC(=O)N2CCN(C)CC2)c1
→ /	8
> C=C(C)C1CC=C(CN(C)C2CCN(C)CC2)CC1 (stereo not given)
→ -5.3	9
> O=CNc1nonc1NNc1nonc1NC=O
→ 6.4	8
> [C-]#[N+]c1ccc(Cl)cc1C(C)S(=O)(=O)c1ccc(C)cc1 (stereo not given)
→ -1.5	-8
> N#Cc1cc2c(nc1SCC(=O)Nc1ccc(Cl)cc1)C1CCN2CC1
→ -0.3	3
> CC(=O)OC1CCC2(C)C(=CCC3C4CCC(=O)C4(C)CCC32)C1 (stereo not given)
→ -0.3	10
> CCN1CCN(Cc2ccccc2Cl)CC1
→ -1.9	/
> N#CC1CC2CC1N(Cc1ccccc1)C2 (stereo not given)
→ -0.6	/
> CC(C)C[C@H]1C(=O)N2CCC[C@H]2[C@]2(O)O[C@](NC(=O)[C@@H]3C=C4c5cccc6[nH]cc(c56)C[C@H]4N(C)C3)(C(C)C)C(=O)N12
→ 8.2	/
> CCc1nc2ccccc2c(=O)n1-c1ccc(OC)cc1
→ -0.8	10
> O=C1C=Cc2ccc3c4c(ccc1c24)C=CC3=O
→ /	48*
> CC1(c2ccccc2)CNC(=O)C1 (stereo not given)
→ -3.9	6

# Further records.
# Values run as follows: MgrA DNA FP	Sa helicase inh
> CC12CCC3C(CCC4CCCCC43C)C1C/C(=C\c1ccc[nH]1)C2=O (stereo not given)
→ -2.0	3
> CCOc1ccc(Br)cc1C1C(C#N)=C(N)Oc2c1c(=O)oc1ccccc21 (stereo not given)
→ -0.4	/
> O=C1NCCN2CCCC12 (stereo not given)
→ /	13
> C=CCOc1ccc(/C=C/[N+](=O)[O-])cc1
→ 0.7	/
> N#CC(C#N)=NNc1ccccc1OC(F)(F)F
→ 2.8	/
> Cc1cccc(N2CCNCC2)c1
→ -0.5	/
> CC(C)OP(=S)(OC(C)C)OC(C)C
→ -1.9	16
> O=[N+]([O-])c1ccc(O)c([N+](=O)[O-])c1
→ -6.2	/
> O=C(O)CP(=S)(c1ccccc1)c1ccccc1
→ -3.5	9
> Cc1ccc(C)n1C(Cc1cnc[nH]1)C(=O)O (stereo not given)
→ 4.3	-7
> CN1C(=O)C(=Cc2cn(Cc3ccc(Cl)cc3)c3ccccc23)C(=O)N(C)C1=O
→ 1.3	/
> O=[N+]([O-])c1cccnc1N1CCCNCC1
→ 1.2	/
> CN(C)c1ccc(-c2ccc(N(C)C)cc2)cc1
→ /	5
> CN(Cc1ccccc1)CC(O)c1ccc2cc[nH]c2c1 (stereo not given)
→ /	7
> CN(C)CC(C)(O)c1ccc(Br)cc1 (stereo not given)
→ 1.4	2
